DUX4 inh: inhibitors of DUX4-driven ZSCAN4 reporter expression, primary screen, 293T cells, Gaussia and Italica luciferase. 37,000 compounds, 0.8% hits. AID 1224904, 2016. activity change, negative = inhibition, % (no concentration beside the values). 293T-iDUX4 ZSCAN4-Gaussia luciferase reporter, 24 h; stronger effect = lower value;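 active means -10% or lower and over 25 points stronger than a control reporter; inconclusive means -10% or lower with a smaller gap; inactive means above -10%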;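 further: 0% = median of neutral control wells and -100% = median of positive control wells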
DUX4 inh difference: also measured in DUX4 inh; calls as there; Gaussia minus Italica difference, %; measured here: selective DUX4 reporter inhibition;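 worked out from the two reporters; negative = selective loss of the DUX4 reporter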
DUX4 inh control: also measured in DUX4 inh; calls as there; activity change, negative = inhibition, %; measured here: Italica tet-on control reporter;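 0 = neutral control and -100 = positive control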
Starred values were filed as active, the others as inactive; ? = inconclusive; nt = no result given. Only part of the results is shown; count on the stated rates, not on these rows.

No.	DUX4 inh	DUX4 inh difference	DUX4 inh control	canonical_smiles
1	-5	-4	-0.5	COc1ccc(S(=O)(=O)Nc2ccc3c(c2)C(=O)N([C@H](C)CO)C[C@H](C)[C@H](CN(C)Cc2ccc(C(=O)Nc4ccccc4N)cc2)OCCCC[C@@H](C)O3)cc1
2	?	nt	nt	COc1cccc(S(=O)(=O)N2CC[C@@H]3[C@H]2c2cc(Br)ccc2N[C@@H]3CO)c1
3	10	8	1.7	CCCNC(=O)C[C@H]1CC[C@@H]2[C@H](COC[C@H](O)CN2C(=O)C2CCOCC2)O1
4	?	nt	nt	CCC(=O)N1CC2(CN(Cc3ccc(Cl)cc3)C2)c2c([nH]c3cc(OC)ccc23)[C@@H]1CO
5	?	nt	nt	O=C(c1cccnc1)N1CC[C@@H]2[C@H](CO)Nc3ccc(-c4cccc(F)c4)cc3[C@@H]21
6	-1	-2	0.5	CC=Cc1ccc2n(c1=O)C[C@H]1[C@H](CO)[C@@H](C(=O)N3CCc4ccccc4C3)[C@@H]2N1Cc1ccncc1 (mixture of isomers)
7	-4	-4	-0.9	CCNC(=O)c1cc2c(c(-c3cccc(-c4cccc(OC)c4)c3)n1)[C@H](CCO)N([S@@](=O)C(C)(C)C)C2
8	3	7	-3.8	CN1C(=O)c2cc(NC(=O)Nc3ccc(Cl)cc3)ccc2OC[C@@H]2O[C@H](CC(=O)NCCN3CCCCC3)CC[C@@H]21
9	20	8	12	C[C@@H](O)C#Cc1ccc([C@H]2[C@@H](CO)N3CCCCN(C(=O)Nc4ccccc4)C[C@@H]23)cc1
10	-1	1	-1.7	CC(C)NC(=O)N(C)C[C@@H]1Oc2ccc(NC(=O)Nc3ccc4c(c3)OCO4)cc2CC(=O)N([C@@H](C)CO)C[C@@H]1C
11	-5	-7	2.6	C[C@H](CO)N1C[C@H](C)[C@@H](CN(C)Cc2cccc(O)c2)OCc2cnnn2CCCC1=O
12	8	7	1.2	O=C(CC1CC1)Nc1ccc2c(c1)[C@H]1C[C@@H](CC(=O)NC3CCCCC3)O[C@@H](CO)[C@H]1O2
13	?	nt	nt	O=C(C[C@@H]1CC[C@H]2[C@@H](COC[C@@H](O)CN2CC2CCCCC2)O1)NCc1ccc(Cl)cc1
14	-2	-4	1.5	CCS(=O)(=O)Nc1ccc2c(c1)C(=O)N(C)[C@@H]1CC[C@H](CC(=O)NC3CCCCC3)O[C@H]1CO2
15	6	2	3.6	CCCc1cn(CC[C@@H]2CC[C@@H](NC(=O)C3CCOCC3)[C@H](CO)O2)nn1
16	-8	-1	-6.7	CCC(=O)N(C)C[C@@H]1Oc2cc(-c3ccccc3C)ccc2S(=O)(=O)N([C@@H](C)CO)C[C@H]1C
17	?	nt	nt	COc1ccc(CN2CC3(CN(S(=O)(=O)c4ccc(C)cc4)C3)c3c([nH]c4cc(OC)ccc34)[C@H]2CO)cc1
18	?	nt	nt	CO[C@H]1CN(C)C(=O)c2cc(NC(=O)Nc3cccc(F)c3)ccc2OC[C@H](C)N(C(=O)C2CC2)C[C@H]1C
19	-9	-12	2.7	O=C(C[C@H]1CC[C@@H]2[C@H](COC[C@@H](O)CN2Cc2cc(F)ccc2F)O1)N[C@H]1CCN(Cc2ccccc2)C1
20	5	8	-2.3	COc1cccc(NC(=O)N(C)C[C@H]2OCc3cn(nn3)CCCC(=O)N([C@H](C)CO)C[C@@H]2C)c1
21	-5	-3	-1.5	CCc1cnc(N2[C@H](C#N)[C@H](c3ccc(C4=CCCC4)cc3)[C@@H]2CO)s1
22	-1	-1	-0.2	O=C(Cc1ccncc1)NCC[C@@H]1CC[C@@H](NC(=O)C2CCOCC2)[C@@H](CO)O1
23	2	-1	2.8	CCCN(C)C[C@@H]1Oc2cc(C#CC3CCCCC3)ccc2S(=O)(=O)N([C@@H](C)CO)C[C@@H]1C
24	-1	0	-0.4	CCCC(=O)N1CC2(CCN(Cc3nccs3)CC2)c2c([nH]c3cc(OC)ccc23)[C@@H]1CO
25	7	-4	11	COCC(=O)N1CC2(C1)[C@H](c1ccc(-c3ccccc3)cc1)[C@H](CO)N2C(C)=O

Complete entries, looked up by structure. Order of screens: DUX4 inh | DUX4 inh difference | DUX4 inh control
`COc1cccc(NC(=O)N(C)C[C@H]2OCc3cn(nn3)CCCC(=O)N([C@H](C)CO)C[C@@H]2C)c1` reads 5 | 8 | -2.3
`COc1ccc(CN2CC3(CN(S(=O)(=O)c4ccc(C)cc4)C3)c3c([nH]c4cc(OC)ccc34)[C@H]2CO)cc1` reads ? | nt | nt
`O=C(CC1CC1)Nc1ccc2c(c1)[C@H]1C[C@@H](CC(=O)NC3CCCCC3)O[C@@H](CO)[C@H]1O2` reads 8 | 7 | 1.2
`CCCC(=O)N1CC2(CCN(Cc3nccs3)CC2)c2c([nH]c3cc(OC)ccc23)[C@@H]1CO` reads -1 | 0 | -0.4
`CN1C(=O)c2cc(NC(=O)Nc3ccc(Cl)cc3)ccc2OC[C@@H]2O[C@H](CC(=O)NCCN3CCCCC3)CC[C@@H]21` reads 3 | 7 | -3.8

The results go on:
No.	DUX4 inh	DUX4 inh difference	DUX4 inh control	canonical_smiles
26	-2	-2	0.2	CCCC#Cc1ccc2c(c1)O[C@@H](CN(C)C(=O)CC1CC1)[C@@H](C)CN([C@@H](C)CO)S2(=O)=O
27	1	3	-1.9	CO[C@H]1CN(C)C(=O)c2ccc(NC(=O)c3ccc(F)cc3)cc2OC[C@H](C)N(C)C[C@@H]1C
28	1	4	-2.2	C[C@H](O)C#Cc1ccc2c(c1)O[C@@H](CN(C)C(=O)C1CCCCC1)[C@@H](C)CN([C@@H](C)CO)S2(=O)=O
29	-3	2	-4.4	COc1ccc(S(=O)(=O)Nc2ccc3c(c2)C(=O)N([C@@H](C)CO)C[C@@H](C)[C@@H](CN(C)CC2CC2)OCCCC[C@@H](C)O3)cc1
30	-1	-4	3.2	C[C@H]1CC=CC[C@H](c2ccc3c(c2)OCO3)NC(=O)[C@@H](Cc2ccccc2)N(C)C(=O)c2ccccc2O1 (mixture of isomers)
31	5	2	3.1	O=C(C[C@@H]1CC[C@@H]2NC[C@@H](O)COC[C@H]2O1)Nc1nccs1
32	8	5	2.5	O=C(C[C@@H]1C=C[C@@H](NC(=O)C2CCC2)[C@@H](CO)O1)NCc1ccccc1Cl
33	?	nt	nt	COc1ccc(NC(=O)N2CCCCN3[C@H](C2)[C@@H](c2ccc(-c4ccccc4F)cc2)[C@@H]3CO)cc1
34	-3	-5	2.1	CN(C)CC(=O)Nc1ccc2c(c1)[C@@H]1C[C@@H](CC(=O)NCc3cc(F)ccc3F)O[C@@H](CO)[C@@H]1O2
35	-9	-12	2.3	C[C@@H](C(=O)N(C)C[C@@H]1OCc2ccccc2-c2ccccc2C(=O)N([C@@H](C)CO)C[C@@H]1C)c1ccccc1
36	2	-2	3.4	C/C=C/c1ccc2c(c1)O[C@@H](CN(C)S(=O)(=O)c1ccc(F)cc1)[C@@H](C)CN([C@H](C)CO)S2(=O)=O
37	?	nt	nt	Cc1ccc(S(=O)(=O)N2CC[C@@H]3[C@H]2c2cc(-c4cccc(C(=O)N(C)C)c4)ccc2N[C@@H]3CO)cc1
38	3	0	2.7	CCC(=O)N1CCC2(CC1)CN(CC1CCCCC1)[C@H](CO)c1c2c2ccc(OC)cc2n1C
39	2	-4	6.4	CC(=O)N1CC(=O)N2[C@H](CO)[C@H](c3ccc(-c4ccncc4)cc3)[C@@H]2C1
40	-1	2	-2.2	N#C[C@H]1N[C@H](CO)[C@@H]1c1ccc(-c2cccc(F)c2)cc1
41	15	-1	15	O=C(C[C@H]1CC[C@H]2[C@@H](COC[C@H](O)CN2Cc2ccc3c(c2)OCO3)O1)N1CCOCC1
42	0	-3	2.6	CO[C@H]1CN(C)C(=O)c2cc(NS(C)(=O)=O)ccc2OC[C@@H](C)N(CC2CCOCC2)C[C@H]1C
43	2	4	-2.1	COc1cccc(-c2cn(CC[C@@H]3CC[C@H](NC(=O)CN(C)C)[C@@H](CO)O3)nn2)c1
44	2	0	2.3	Cc1ccc(S(=O)(=O)Nc2ccc3c(c2)C(=O)N([C@H](C)CO)C[C@@H](C)[C@H](CN(C)C(=O)Nc2c(C)noc2C)O3)cc1
45	5	0	4.9	COc1ccc(S(=O)(=O)N2CC3(CN(Cc4ccncc4)[C@H](CO)c4[nH]c5cc(OC)ccc5c43)C2)cc1
46	3	0	2.8	COCCN(C[C@@H]1[C@@H](c2ccccc2)[C@H](CO)N1C(C)=O)C(=O)c1cccnc1
47	2	1	1.0	CNC(=O)C[C@H]1CC[C@H]2[C@@H](COC[C@H](O)CN2C(=O)Nc2ccc(Cl)c(Cl)c2)O1
48	14	11	3.0	COc1ccc2c3c(n(C)c2c1)[C@@H](CO)N(C(=O)Nc1c(C)noc1C)CC31CN(CC2CC2)C1
49	10	8	2.1	O=C(C[C@@H]1C[C@H]2c3cc(NC(=O)C4CCC4)ccc3O[C@H]2[C@@H](CO)O1)NCc1ccccc1F
50	-8	0	-8.0	CN1c2ccc(-c3ccccc3F)cc2[C@H]2[C@H](CCN2S(=O)(=O)c2ccccc2F)[C@@H]1CO

4 compounds from above, reduced to DUX4 inh:
item | SMILES | DUX4 inh
13 | O=C(C[C@@H]1CC[C@H]2[C@@H](COC[C@@H](O)CN2CC2CCCCC2)O1)NCc1ccc(Cl)cc1 | ?
34 | CN(C)CC(=O)Nc1ccc2c(c1)[C@@H]1C[C@@H](CC(=O)NCc3cc(F)ccc3F)O[C@@H](CO)[C@@H]1O2 | -3
21 | CCc1cnc(N2[C@H](C#N)[C@H](c3ccc(C4=CCCC4)cc3)[C@@H]2CO)s1 | -5
28 | C[C@H](O)C#Cc1ccc2c(c1)O[C@@H](CN(C)C(=O)C1CCCCC1)[C@@H](C)CN([C@@H](C)CO)S2(=O)=O | 1

The list goes on:
No.	DUX4 inh	DUX4 inh difference	DUX4 inh control	canonical_smiles
51	15	1	14	CN(C)CC(=O)N1[C@@H](C#N)[C@@H](c2ccccc2-c2ccccc2F)[C@@H]1CO
52	-5	-2	-2.5	CN1C(=O)c2cc(NC(=O)c3cscn3)ccc2OC[C@@H]2O[C@H](CC(=O)NCC3CC3)CC[C@@H]21
53	-1	-7	5.5	COC(=O)[C@H]1[C@H](CO)[C@H]2Cn3c(ccc(C4=CCCC4)c3=O)[C@H]2N1C(=O)C1CCC1
54	-2	3	-4.9	C/C=C/c1ccccc1[C@H]1[C@@H](CO)N(C(=O)Nc2cccc(F)c2)[C@H]1C#N
55	7	-1	7.8	C[C@H](CO)N1C[C@H](C)[C@@H](CN(C)Cc2ccncc2)OCc2ccccc2-c2ccccc2C1=O
56	-4	1	-5.1	N#C[C@@H]1[C@H](c2ccc(C3=CCCC3)cc2)[C@H](CO)N1C(=O)C1CCCC1
57	2	-2	4.4	CN(C)C(=O)C[C@H]1C[C@@H]2c3cc(NC(=O)Nc4ccc(F)cc4)ccc3O[C@@H]2[C@H](CO)O1
58	10	9	1.0	CCC(=O)N1C[C@H](O)COC[C@@H]2O[C@@H](CC(=O)NCC3CCCCC3)CC[C@H]21
59	18	16	1.5	COCC(=O)Nc1ccc2c(c1)[C@H]1C[C@@H](CC(=O)O)O[C@H](CO)[C@H]1O2
60	?	nt	nt	O=C(Nc1ccccc1)N1CCCCN2[C@H](CO)[C@@H](c3ccc(Br)cc3)[C@@H]2C1
61	-7	-8	1.2	CS(=O)(=O)Nc1ccc2c(c1)[C@@H]1C[C@@H](CC(=O)NC3CCCC3)O[C@H](CO)[C@@H]1O2
62	4	-5	8.6	COCC(=O)N1[C@H](C#N)[C@H](c2ccc(-c3cccc(F)c3)cc2)[C@@H]1CO
63	?	nt	nt	O=C(Nc1ccccc1)N1CCCCN2[C@H](C1)[C@@H](c1ccc(C3=CCCCC3)cc1)[C@@H]2CO
64	-7	1	-7.8	COCC(=O)N1CC[C@@H]2[C@H](CO)Nc3ccc(-c4ccc(C#N)cc4)cc3[C@@H]21
65	1	-1	1.9	CN(C)CCCNC(=O)C[C@H]1CC[C@@H]2[C@H](COc3ccc(NC(=O)NC4CCCC4)cc3C(=O)N2C)O1
66	0	3	-2.4	C[C@@H]1CN([C@H](C)CO)C(=O)c2cc(C#Cc3ccncc3)cnc2O[C@@H]1CN(C)S(=O)(=O)c1ccccc1F
67	12	-1	14	COc1ccc2c3c([nH]c2c1)[C@H](CO)N(Cc1ccncc1)CC31CN(C(=O)Cc2ccncc2)C1
68	16	24	-8.3	COc1cccc(S(=O)(=O)N2[C@@H]3CNC[C@H]2C3c2ccc(-c3ccc(C(=O)N(C)C)cc3)cc2)c1 (some centres not stated)
69	-2	-4	1.8	C[C@@H]1CN([C@H](C)CO)S(=O)(=O)c2ccc(-c3ccccc3F)cc2O[C@H]1CN(C)C(=O)C1CC1
70	-1	0	-0.5	CO[C@H]1CN(C)C(=O)c2cc(NC(=O)c3ccc(F)cc3)ccc2OC[C@H](C)NC[C@@H]1C
71	-2	-2	-0.7	N#C[C@@H]1[C@H](c2ccc(C#CC3CC3)cc2)[C@@H](CO)N1S(=O)(=O)c1ccccc1
72	1	0	0.3	C[C@H](CO)N1C[C@H](C)[C@H](CN(C)C(=O)Nc2ccc(F)cc2)Oc2ncc(C#Cc3ccc(C(F)(F)F)cc3)cc2C1=O
73	6	1	5.4	CO[C@H]1CN(C)C(=O)c2cc(NC(=O)Cc3ccccc3)ccc2OC[C@@H](C)N(C(=O)c2ccccc2F)C[C@H]1C
74	0	-2	1.8	O=C(C[C@@H]1C[C@H]2c3cc(NC(=O)c4cccnc4)ccc3O[C@H]2[C@H](CO)O1)NCc1cccc(F)c1
75	?	nt	nt	O=C(C[C@H]1CC[C@H]2[C@@H](COC[C@H](O)CN2S(=O)(=O)c2ccccc2)O1)NCc1ccc(-c2ccccc2)cc1

2 entries from above, as tab-separated lines:
entry	SMILES	DUX4 inh	DUX4 inh difference	DUX4 inh control
62	COCC(=O)N1[C@H](C#N)[C@H](c2ccc(-c3cccc(F)c3)cc2)[C@@H]1CO	4	-5	8.6
60	O=C(Nc1ccccc1)N1CCCCN2[C@H](CO)[C@@H](c3ccc(Br)cc3)[C@@H]2C1	?	nt	nt

Assay outcomes from PubChem.
